Lassa entry inh: blocks Lassa virus binding to or entry into cells; AID 540256; Potency, µM (top dose mostly 37.9 µM), inactives show at the top dose activity change, negative = inhibition, hits mostly inhibitors; Lassa virus pseudotype entry inhibition, cell reporter; control for the full effect not named in the record; actives 1.2% (n = 300,000); active means well fitted inhibition curve with a large enough effect; inconclusive means small, poorly fitted or top-dose-only effect, or effect the other way; inactive means flat fitted curve, though single readings scatter; tested in HEK293 cells; further: on the % scale 0 is the no-effect control and ±100 the full control effect; nearly all actives have a fitted effect of over 50% in size; luciferase read-out
Cruzain Triton: inhibitors of Trypanosoma cruzi cruzain with detergent; P25779; AID 1478; actives 0.43% (n = 200,000); Potency, µM, inactives show max response, negative = inhibition, most hits filed as inhibitors; purified cruzain, Z-FR-AMC fluorescence, 0.01% Triton;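 further: plate controls were neutral wells for no effect and buffer without enzyme for full effect; nearly all actives have a fitted effect of over 40% in size; top concentration of the series not given in the record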
Target sequence (P25779 123-467 limits assumed): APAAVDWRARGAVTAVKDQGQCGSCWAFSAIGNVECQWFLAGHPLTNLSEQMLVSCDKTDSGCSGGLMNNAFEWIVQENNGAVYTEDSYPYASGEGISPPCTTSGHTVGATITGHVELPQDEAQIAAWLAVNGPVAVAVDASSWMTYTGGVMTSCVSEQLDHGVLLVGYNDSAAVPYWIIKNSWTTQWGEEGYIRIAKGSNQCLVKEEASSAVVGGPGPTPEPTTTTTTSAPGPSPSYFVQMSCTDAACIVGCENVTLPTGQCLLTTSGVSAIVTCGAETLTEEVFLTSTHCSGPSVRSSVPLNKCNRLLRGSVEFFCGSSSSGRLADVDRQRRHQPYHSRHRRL
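In this qHTS format, compounds are incubated with 1.5 nM cruzain for 15 min at room temperature before 2 uM Z-FR-AMC is added. Release of AMC is followed at 360/450 nm, and progress is taken as the 60 s fluorescence difference.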
SARS PLP yeast: inhibitors of SARS-CoV papain-like protease in yeast; S. cerevisiae expressing SARS-CoV PLpro, growth rescue; control for the full effect not named in the record; Potency, µM (series often up to 32.9 µM), without a hit: at the highest dose activity, positive = growth rescue; actives 0.19% (n = 330,000); AID 485353; active means well fitted rising curve with a large enough effect; inconclusive means small, poorly fitted or top-dose-only effect; inactive means no such curve, though single readings can be large or run the other way; further: 0% is about no effect; nearly all actives have a fitted effect of over 55% in size; growth read by luminescence after 48 h
2A StopGo: FMDV 2A StopGo reporter, luciferase signal. human cells with a luciferase reporter of 2A StopGo recoding; control for the full effect not named in the record. Potency, µM (top dose mostly 57.9 µM), for the others: at the top dose signal change, negative = less light. actives 1.2% (n = 410,000); active = well fitted falling curve with a large enough effect; inconclusive = small, poorly fitted or top-dose-only effect; inactive = no such curve, though single readings can be large or run the other way; tested in HEK293T cells; further: on the % scale 0 is the no-effect control and ±100 the full control effect; nearly all actives have a fitted effect of over 45% in size; luciferase light after 4 h
NS1 function inh: inhibitors of influenza NS1 protein function; S. cerevisiae slowed by influenza A NS1, growth recovery by OD600; Potency, µM (highest dose often 46.1 µM), without a hit: at the highest dose activity, positive = more growth; actives 0.4% (n = 270,000); active means well fitted rising curve with a large enough effect; inconclusive means small, poorly fitted or top-dose-only effect; inactive means no such curve, though single readings can be large or run the other way; further: nearly all actives have a fitted effect of over 50% in size
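S. cerevisiae expressing influenza A NS1, grown in glucose, washed, then diluted 1:100 into pH 6.0 -URA galactose medium with 23 nl compound. Growth recovery read as OD600; NS1-free strain serves as control.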
RE007 growth inh: less growth of the S. pombe RE007 Vpr strain; S. pombe RE007 Vpr strain, BacTiter-Glo ATP luminescence, 24 h; control for the full effect not named in the record; actives 0.21% (n = 360,000); Potency, µM (top dose mostly 92.2 µM), for the others: at the top dose activity change, negative = less growth; active = well fitted falling curve with a large enough effect; inconclusive = small, poorly fitted or top-dose-only effect; inactive = no such curve, though single readings can be large or run the other way;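 further: on the % scale 0 is the no-effect control and ±100 the full control effect; nearly all actives have a fitted effect of over 50% in size; the assay follows cell death caused by Vpr and the record does not say whether a fall means rescue or toxicity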
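Fission yeast RE007 carrying one integrated HIV-1 vpr copy, seeded at OD 0.01 in PMG+AL medium with 23 nL pinned compound. Grown 24 h at 30 degrees; viability read by BacTiter-Glo luminescence after 5 min.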
Cruzain inh noDet: cruzain (T. cruzi) inhibition without detergent; Potency, µM, inactives show max response, negative = inhibition, most hits filed as inhibitors; P25779; purified cruzain, Z-FR-AMC fluorescence, no detergent; actives 2.3% (n = 200,000); AID 1476;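 further: plate controls were enzyme without inhibitor for no effect and buffer without enzyme for full effect; nearly all actives have a fitted effect of over 40% in size; top concentration of the series not given in the record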
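Detergent-free condition (0.00005% Triton X-100) in acetate buffer pH 5.5 with DTT. 1.5 nM enzyme and compound were pre-mixed 15 min, then 2 uM Z-FR-AMC substrate added; reaction progress from fluorescence change between first and third reads (60 s).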
MARV entry inh: inhibitors of Marburg virus binding or cell entry; Potency, µM (doses to about 37.8 µM), without a hit: top-dose activity change, negative = inhibition, most hits filed as inhibitors; actives 1.8% (n = 300,000); Marburg virus pseudotyped entry inhibition, cell reporter; control for the full effect not named in the record; about a third of the inactives were read at about 46 µM; active = well fitted inhibition curve with a large enough effect; inconclusive = small, poorly fitted or top-dose-only effect, or effect the other way; inactive = flat fitted curve, though single readings scatter; tested in HEK293 cells; about a fifth of its hits are not listed in these tables; further: on the % scale 0 is the no-effect control and ±100 the full control effect; luciferase read-out
Active calls of the source: *; ? = inconclusive; . = not tested or not shown; & = joins results of further samples; [ ] = dose if it differs, or a comment. Unless noted, the call rests on the fitted dose curve; in most records, active means well fitted curve in the direction sought with a large enough effect; inconclusive means small, poorly fitted or top-dose-only effect, or another doubt; inactive means no such curve, though single readings can be large; an effect the other way counts as inactive or inconclusive. Potency means the concentration at half of the fitted maximal effect.

Every second line gives: Cruzain Triton	Lassa entry inh	SARS PLP yeast	RE007 growth inh	MARV entry inh	Cruzain inh noDet	2A StopGo	NS1 function inh
- COc1ccc2[nH]c(=O)c(CN(Cc3ccccc3)Cc3nnnn3CC3CCCO3)cc2c1 (stereo not given)
    2.1%	-4%	-1%	-4%	-2%&-27%	?	.	-28%
- Cc1ccc(NC(=O)CSCC(=O)OCc2cc(=O)oc3cc(O)ccc23)c(C)c1
    .	15%	-2%	6%	-10%[46.1 µM]	.	-18%	.
- Cc1ccc2[nH]cc(C(=O)CCl)c2c1
    ?	?	.	-7%	?	?	11µM*	-44%
- C=CCn1c(CSc2ccccc2[N+](=O)[O-])n[nH]c1=S
    .	9%	0%	0%	19%[46.1 µM]	.	3%	8%
- COc1ccccc1NC(=O)Cn1cnc2sc(C(=O)Nc3cc(OC)c(OC)c(OC)c3)c(C)c2c1=O
    .	.	-2%	-1%	.	.	-18%	-5%
- COc1ccc(CC(=O)Nc2ccccc2N2CCCC2)cc1OC
    .	-17%[46.1 µM]	3%	12%	-9%[46.1 µM]	.	-15%	10%
- C=CCn1c(Cc2csc(N)n2)nnc1SCC(=O)Nc1ccc(C(=O)OCC)cc1
    9.4%	-1%	-3%	-6%	-10%	-8%	.	3%
- CCCCCCC(=O)NNC(=O)c1c(O)c2ccccc2n(CCC)c1=O
    .	10%	4%	2%	-26%[46.1 µM]	.	-13%	-4%
- O=C(C(Cl)Cl)N1c2ccccc2OCC1c1ccccc1 (stereo not given)
    -0.7%	-1%	-14%	-4%	-21%	-6%	?	-14%
- Cc1ccc(-n2nnnc2SCC(=O)Nc2c(C)n(C)n(-c3ccccc3)c2=O)cc1
    1.8%	-15%	-3%	3%	2%	11%	.	0%
- CCC(NC(=O)c1ccncc1)c1ccccc1 (stereo not given)
    .	5%[46.1 µM]	7%	-13%	2%[46.1 µM]	.	-14%	16%
- Cc1ccc(N(CC2CO2)S(=O)(=O)c2ccc(C)cc2)cc1 (stereo not given)
    .	-27%[46.1 µM]	0%	7%	?	.	5%	-9%
- Cn1c(=O)c(Sc2ccc(Cl)cc2)c(O)c2ccccc21
    -3.9%	2%	-31%	5%	24%	-20%	-5%	-45%
- Cc1ccc2oc(C(=O)Nc3sc4c(c3C(=O)NCc3ccco3)CCC4)cc(=O)c2c1
    -2.7%	0%[46.1 µM]	.	.	-3%[46.1 µM]	3%	26%	.
- COc1ccc(Cn2c(C(=O)O)c(CNCc3ccco3)c3ccc(OC)cc32)cc1
    -4.8%	-25%[46.1 µM]	.	.	.	2%	-3%	.

Next section.
Every second line gives: Cruzain Triton	Lassa entry inh	SARS PLP yeast	RE007 growth inh	MARV entry inh	Cruzain inh noDet	2A StopGo	NS1 function inh
- CCOC(=O)N1CCC(NC(=O)c2cnn(-c3cccc(Cl)c3C)c2C2CCN(C(=O)OC(C)(C)C)CC2)CC1
    -6.4%	-3%[46.1 µM]	.	.	.	?	0%	.
- COc1ccc(CCn2c(NN=C3CCCCC3)nc3c2c(=O)[nH]c(=O)n3C)cc1
    .	?	0%	10%	-25%[46.1 µM]	.	-16%	2%
- O=C(CN(c1ccc(F)cc1)S(=O)(=O)c1ccc2c(c1)OCCO2)NCc1cccnc1
    1.8%	-11%	0%	-15%	7%	3%	-14%	1%
- COc1ccc(CNC(=O)c2cnc(C)cn2)cc1
    6.1%	8%	14%	8%	10%	-12%	-20%	4%
- CC1CCCN(S(=O)(=O)c2cccc(C(=O)NCC3CCCO3)c2)C1 (stereo not given)
    .	?	4%	-9%	-3%	.	21%	.
- Cc1ccc2oc(C(=O)N3CCC(O)(c4ccccc4)CC3)c(C)c2c1
    .	.	-18%	7%	.	.	86%[activator]	-22%
- O=C(C1=C[C@H](c2coc3ccccc3c2=O)C[C@H](OCCCCO)O1)N1CCOCC1
    .	.	0%	7%	.	.	-6%	0%
- CCc1ccc(N2C(=O)NC(=O)C(CCc3ccncc3)(CCc3ccncc3)C2=O)cc1
    2.0%	?	-7%	1%	?	2%	13%	-17%
- Cc1cc(C)cc(NC(=O)Nc2cccs2)c1
    -13%	.	.	.	?	-12%	46%[activator]	.
- COc1ccc2c(c1)C=C(C(=O)NCc1cc(Br)ccc1OC)CO2
    -5.8%	15%[46.1 µM]	.	.	.	?	-12%	.
- C/C(Cn1nnc([N+](=O)[O-])n1)=N\NC(=O)c1ccccc1O
    .	.	-3%	-13%	.	.	-20%	-3%
- COc1ccc(/C=C/C(=O)NCCc2c[nH]c3ccccc23)cc1OC
    .	.	-1%	3%	.	.	0%	-18%
- COc1ccc(Cn2c(=O)[nH]c3cc(C(=O)NCCCN4CCCC4=O)ccc3c2=O)cc1
    1.7%	12%	-3%	-10%	-1%&-1%	28%	?	5%
- COc1ccc(CNC(=O)C2CCN(S(=O)(=O)N3CCOCC3)CC2)cc1
    8.1%	-21%	-3%	-1%	11%	-13%	1%	-2%
- COC(=O)c1ccccc1-c1cn(C)c2ccccc2c1=O
    .	4%	1%	2%	-8%	.	4%	-1%

Next section:
Every second line gives: Cruzain Triton	Lassa entry inh	SARS PLP yeast	RE007 growth inh	MARV entry inh	Cruzain inh noDet	2A StopGo	NS1 function inh
- CCC(=O)Nc1ccc2nn(-c3ccc(F)cc3)nc2c1
    .	.	3%	0%	.	.	0%	-5%
- CC1(C)CC(=O)c2cc(C(=O)NC3CCSC3=O)c(=O)n(-c3ccc(Cl)cc3)c2C1 (stereo not given)
    -4.0%	22%	14%	0%	?	6%	-23%	5%
- Cn1c2ccccc2c2cc(C(=O)O)ccc21
    -1.7%	20%	-20%	-26%	10%	-10%	.	-158%
- Cc1ccc(S(=O)(=O)N(CC(=O)N/N=C/c2cccc3c2OCCO3)c2ccccc2F)cc1
    -6.2%	-1%	-4%	-1%	?	-18%	-20%	-52%
- c1ccc(-c2nnc(-c3ccco3)o2)cc1
    1.5%	-5%	-4%	0%	-3%	13%	48%[activator]	-63%
- C[N+](C)(C)CC/C=C1/c2ccccc2CSc2ccccc21
    0.3%	23%	15%	-24%	3%	3%	-5%	18%
- COc1ccc(C(=O)Nc2ccc(N3CCN(C)CC3)cc2)cc1[N+](=O)[O-]
    .	?	0%	-4%	?	.	8%	.
- COc1ccc(/C=N/OCc2ccccc2C#N)c(OC)c1
    .	.	-2%	2%	.	.	23%	-2%
- C=CCn1c(=O)c2ccccc2n2c(SCc3csc(-c4ccccc4)n3)nnc12
    -1.5%	-12%	2%	10%	6%[46.1 µM]	3%	?	-34%
- Cc1cc(C)c2nc(N3CCC(C(=O)NCCCN4CC(C)CC(C)C4)CC3)sc2c1 (stereo not given)
    .	23%	2%	-10%	2%[46.1 µM]	.	-2%	.
- CC(=O)Nc1ccccc1NS(=O)(=O)c1ccc(Cl)cc1
    -1.3%	3%	-2%	1%	0%	-2%	?	4%
- Cc1cc(NC(=O)c2ccccc2-c2ccccc2)ccc1Br
    -3.3%	?	-19%	15%	-16%	4%	-25%	-19%
- Cc1cccc2[nH]c(CN(C)C(=O)CC3C(=O)NCCN3CC(C)(C)C)nc12 (stereo not given)
    .	22%[46.1 µM]	2%	5%	-3%[46.1 µM]	.	?	2%
- CCn1c(C)[n+](CC)c2ccc(C(=O)N(C)c3ccccc3)cc21
    .	0%	0%	-1%	?	.	-4%	3%
- CCn1c(CC(=O)Nc2ccccc2)nnc1SCC(=O)NC1CCCC1
    .	19%	3%	4%	1%[46.1 µM]	.	2%	-1%

(more compounds)
Every second line gives: Cruzain Triton	Lassa entry inh	SARS PLP yeast	RE007 growth inh	MARV entry inh	Cruzain inh noDet	2A StopGo	NS1 function inh
- CSc1nnc(C2CCCN(CC(=O)Nc3ccccc3N3CCOCC3)C2)n1C(C)C (stereo not given)
    .	-14%	1%	1%	-10%[46.1 µM]	.	-3%	-2%
- Cc1cccc(C)c1NC(=O)CN1N=NC2C(=O)N(c3cccc(Cl)c3)C(=O)C21 (stereo not given)
    -13%	-2%	22%	-16%	-2%	-1%	-1%	24%
- COc1ccc(Cn2c(O)c(C=Nc3ccc(OC)cc3)c3ccccc3c2=O)cc1
    -2.9%	?	17%	-2%	?	13µM*	-25%	11%
- O=C(CSC1=NCCS1)c1ccc(Cl)cc1
    .	-18%	-23%	-12%	0%	.	-10%	.
- Cc1cccc(C)c1OCc1cc(C(=O)N2CC3C[C@@H]4CC2C[C@H](C3)C4)no1
    .	-31%	-2%	-3%	?	.	17%	-73%
- COC(=O)c1sc(S(=O)(=O)N2CCCCC2C(=O)O)c(C(=O)OC)c1C (stereo not given)
    5.5%	17%	2%	-9%	2%	-9%	14%	9%
- COC(=O)Cc1ccc(NC(=S)NCCSc2ccc(Cl)cc2)cc1
    .	-17%[46.1 µM]	-2%	6%	?	.	1%	-64%
- COc1ccc(CCNC(=O)C2CCCCC2C(=O)O)cc1OC (stereo not given)
    0.4%	.	3%	.	-3%	-7%	.	-1%
- CCOc1ccc(CNc2nc3ccccc3n2C)cc1
    .	.	1%	-7%	.	.	59%[activator]	-9%
- Cc1c(N2C(=O)CSC2c2ccc(F)cc2)c(=O)n(-c2ccccc2)n1C (stereo not given)
    .	-6%	1%	2%	?	.	-14%	4%
- CCOC(=O)CC1(NC(=O)C2CCC(=O)N(CCc3ccc(OC)cc3)C2)CCCCC1 (stereo not given)
    .	.	?	-10%	.	.	8%	-4%
- CCn1c2ccccc2c2cc(C3C(C#N)=C(N)Oc4n[nH]c(COC)c43)ccc21 (stereo not given)
    -21%	?	-10%	0%	5.2µM*	-14%	?	6%
- O=C(O)/C=C/S(=O)(=O)c1ccc2ccccc2c1
    .	.	-5%	-9%	.	.	-3%	-5%
- Cc1ccc(-n2ncc3c(=O)n(CC#N)cnc32)cc1
    2.8%	13%	1%	-11%	25%	-1%	25%	-12%
- COc1cc(NC(=S)NC(=O)c2cccs2)ccc1NC(=O)C(C)C
    .	.	-7%	0%	.	.	30%[activator]	8%
- COc1cc(-n2c(=O)c3ccccc3n(Cc3ccccc3)c2=O)cc(OC)c1OC
    0.4%	-14%	3%	-8%	-4%	13%	-8%	0%

Screening data (PubChem BioAssay)
